# Screening results deposited in PubChem by National Center for Advancing Translational Sciences (NCATS).
# 2A StopGo – FMDV 2A StopGo reporter, luciferase signal; human cells with a luciferase reporter of 2A StopGo recoding; control for the full effect not named in the record; Potency, µM (top dose mostly 57.9 µM), for the others: at the top dose signal change, negative = less light; 410,000 tested, 1.2% active; AID 1159524; active = well fitted falling curve with a large enough effect; inconclusive = small, poorly fitted or top-dose-only effect; inactive = no such curve, though single readings can be large or run the other way; tested in HEK293T cells; also: nearly all actives have a fitted effect of over 45% in size; luciferase light after 4 h
# Numbers without * were called inactive; ? = inconclusive; & = joins results of further samples; [ ] = remark or other dose. % is scaled to controls: 0 for no effect and ±100 for the full control effect; potency is read from the fitted curve at half-maximal effect.
SMILES,2A StopGo
CC(=O)c1ccccc1-c1ccc2c(c1)CC(CNC(=O)C[C@@H]1C[C@@H](C)NC(=S)N1)O2 (stereo partly drawn),-9.3%
CSc1ccccc1C(=O)NCC1Cc2cc(F)cc(-c3cnccn3)c2O1 (stereo not drawn),-8.7%
Cc1ccn(CCC(=O)N2CCOc3ccc(C(O)C4CCCCC4)cc3C2)n1 (stereo not drawn),-7.6%
COc1ccc(CCNc2ncnc3sc(C(=O)N(C)C)c(C)c23)cc1OC,-13.2%
CCn1cc(CN2CCOc3ccc(C(O)C4CCCCC4)cc3C2)c(C)n1 (stereo not drawn),-20.5%
CC1CN(CC(=O)N2CCN(Cc3nccn3C)CC2)Cc2cc(Cl)ccc2O1 (stereo not drawn),-5.2%
COc1ccc(CN(C)CCn2cc(C(=O)N3CCSCC3)nn2)cc1C,-5.8%
Cc1cccc(CNC(=O)c2cnn(-c3nccc(-c4cccs4)n3)c2C(C)C)n1,?
COCc1c(C(=O)N2CCN(C3CCCC3)CC2)cnn1-c1nccc(-c2cc(C)sc2C)n1,-1.5%
COC(=O)c1ccccc1-c1cc(C)cc2c1OC(CNC(=O)c1occc1C)C2 (stereo not drawn),32.0%[activator]
O=C(NCCc1ccccn1)C1CC12CCN(C(=O)c1cccc(C(F)(F)F)c1)CC2 (stereo not drawn),-4.3%
CC(C)[C@H](O)CC[C@@H](C)C1CC[C@H]2C3CC=C4C[C@@H](O)CC[C@]4(C)C3CC[C@]12C (stereo partly drawn),-9.1%&-12.6%

# Retrieved by compound from above:
SMILES,2A StopGo
CC(=O)c1ccccc1-c1ccc2c(c1)CC(CNC(=O)C[C@@H]1C[C@@H](C)NC(=S)N1)O2 (stereo partly drawn),-9.3%
Cc1cccc(CNC(=O)c2cnn(-c3nccc(-c4cccs4)n3)c2C(C)C)n1,?

# (next part)
SMILES,2A StopGo
COc1ccc2[nH]cc(CCNCc3ccc(Br)cc3)c2c1,-2.3%
c1cncc(OC2CCN(Cc3ccc4c(c3)CN(Cc3ccc5c(c3)CCO5)CCO4)CC2)c1,-24.6%
CCC1CN(CCNC(=O)c2ccccc2-n2cccn2)Cc2cc(OC)ccc2O1 (stereo not drawn),-12.5%
Cc1cccc2cc(CNCCCN3CCCC3=O)c(N3CCN4CCCC4C3)nc12 (stereo not drawn),3.7%
O=C(NCCc1nnc2n1CCN(Cc1c(F)cccc1F)CC2)c1ccc(F)cc1,-1.5%
COc1cc(-c2ccc(Cl)cn2)cc2c1OCCN(C(=O)c1ccccc1-n1cccn1)C2,-8.7%
CCCN(C/C=C/I)C1CCc2ccc(O)cc2C1 (stereo not drawn),-6.2%
CN1C(=O)CC(CC(=O)N2CCCCC2CCO)(c2cccc(F)c2)C1=O (stereo not drawn),7.6%
N#Cc1c(Cc2cccc3ccccc23)nn(CCO)c1N,-18.6%
O=C(CCc1c[nH]c2ccccc12)N1CCC(n2c(C3CCCO3)nc3cc(C(F)(F)F)ccc32)CC1 (stereo not drawn),-5.6%
CCC1Cc2cc(O)ccc2C2=C1c1ccc(O)cc1CC2CC (stereo not drawn),?
CCOC(=O)CN1C(=O)CC(C[C@@H](O)C2C[C@@H](C)C[C@H](C)C2=O)CC1=O (stereo partly drawn),-15.0%

# Next part; it opens with the two that closed the last part.
SMILES,2A StopGo
CCC1Cc2cc(O)ccc2C2=C1c1ccc(O)cc1CC2CC (stereo not drawn),?
CCOC(=O)CN1C(=O)CC(C[C@@H](O)C2C[C@@H](C)C[C@H](C)C2=O)CC1=O (stereo partly drawn),-15.0%
CC(C)[C@@H]1NC(=O)[C@H](Cc2ccccc2)NC(=O)[C@@H](CC(=O)O)NC(=O)CNC(=O)[C@H](CCCNC(=N)N)NC1=O,1.1%[39.8 µM]
CN(C)CC(C)(C)CNC(=O)c1cnn(-c2ncc3c(n2)-c2ccccc2CC3)c1-c1ccco1,-15.4%
COc1ccccc1-c1ccc(C(=O)N(C)C(C)c2ccon2)c(N2CCN(c3ccccc3F)CC2)n1 (stereo not drawn),5.7%
C=C1C(=O)OC2C=C(C)CCC=C(C)CCC12 (stereo not drawn),-19.6%
COc1ccc(F)c(CN2CCOc3ccc(CN4CCC(Oc5cccnc5)CC4)cc3C2)c1,?
O=C(c1ccc(C(F)(F)F)cc1)N(Cc1cc2ccc(F)cc2nc1N1CCOCC1)C1CC1,2.2%
CCC1CN(CCNC(=O)c2cccc(C(=O)OC)c2)Cc2cc(OC)ccc2O1 (stereo not drawn),54.1%[activator]
CC(=O)OCOC(=O)CN(CC(=O)OCOC(C)=O)c1ccccc1OCCOc1ccccc1N(CC(=O)OCOC(C)=O)CC(=O)OCOC(C)=O,-10.7%[39.8 µM]
COC(=O)c1ccc(CN2CCOc3ccc(CN4CCC(O)(c5cccnc5)CC4)cc3C2)cc1,17.8µM*
CC(=O)N1CCC[C@H]1C(=O)N1CCc2c(cnc(C)c2CNC(=O)/C=C/c2cccs2)C1,5.9%
CC(=O)c1ccccc1-c1ccc2c(c1)CC(CNC(=O)c1ccnc(Cl)c1)O2 (stereo not drawn),?
COCC(=O)Nc1cc(C(=O)N2CCN(c3ccccc3)CC2C)c2c(c1)nc(-c1ccncc1)n2C (stereo not drawn),8.5%
Cc1cnc(-n2ncc(C(=O)NCCN3CCOCC3)c2C(C)C)nc1-c1ccc(F)cc1,8.6%
CN1CCCCC1C(=O)N1CCC(Oc2cccc(CN3CCN(c4ccccn4)CC3)c2)CC1 (stereo not drawn),-7.0%
Cc1noc(C)c1CC(=O)N1CCOc2c(cc(-c3nc4ccccc4s3)cc2OC2CCOC2)C1 (stereo not drawn),-8.7%
CC1CN(CCNC(=O)C2CCCc3c2[nH]c2ccccc32)Cc2ccccc2O1 (stereo not drawn),?
Cc1c(C(=O)NCC(C)C)sc2ncnc(NCC3CCCO3)c12 (stereo not drawn),0.3%
COC(=O)[C@@H]1C[C@H](NC(=O)c2ccccn2)CN1Cc1cccc2ccccc12,4.0%
CC(=O)Nc1cc(C(=O)N2CCN(C(=O)c3ccco3)CC2)cc2ncn(CCc3ccccn3)c12,-10.1%
CSc1nccc(-c2cc(Cl)c3c(c2)CC(CNC(=O)c2nonc2C)O3)n1 (stereo not drawn),-13.2%
COc1cccc(CN2C(=O)NC(C)(C3CCN(Cc4cc(F)cc(F)c4)CC3)C2=O)c1OC (stereo not drawn),-3.3%
CC(C)C[C@H](NC(=O)[C@H](CCC(N)=O)NC(=O)[C@H](CCCCN)NC(=O)[C@H](CCC(N)=O)NC(=O)[C@@H](N)CCC(=O)O)C(=O)N[C@@H](CCC(N)=O)C(=O)O,-5.0%[6.7 µM]
Cc1ccc2c(CC(=O)N3CCOc4ccc(CN5C[C@@H](C)O[C@@H](C)C5)cc4C3)cc(=O)oc2c1,-6.3%
CSc1ccc(-c2ccc(C(=O)NCC3CCCO3)c(N3CCC(O)CC3)n2)cc1 (stereo not drawn),46.5%[activator]
COc1ccccc1CN1CCOc2ccc(C(C)(O)COc3ccccc3)cc2C1 (stereo not drawn),-6.1%
O=C(CCN1Cc2ccccc2OC(c2ccccc2)C1)N[C@@H]1CS(=O)(=O)C[C@H]1O (stereo partly drawn),4.7%
COc1ccc(C2(C(=O)NCC3Cc4cccc(-c5nc(C)cnc5C)c4O3)CCCC2)cc1 (stereo not drawn),-8.6%
Cc1ccc(C(=O)Nc2cnn(-c3ccc(C(=O)N(C)Cc4n[nH]c5c4CCCC5)cc3)c2)c(C)c1,?
Cc1c(C(=O)N2CC[C@@H]3CCCC[C@H]3C2)sc2ncnc(NCCc3ccccn3)c12,-18.6%
COc1ccc(Nc2nc(NCCO)nc(N3CCCC3)n2)cc1,-20.1%
COc1ccc2ccccc2c1CN1CCCC(n2cc(C(=O)N3CCCC3)nn2)C1 (stereo not drawn),12.0%
COCC1CCCN(Cc2ccc3c(c2)CN(C(=O)c2ccnn2C)CCO3)C1 (stereo not drawn),-9.5%
O=C(Cn1nc2ccccc2n1)N1CCOc2ccc(CN3CCc4sccc4C3)cc2C1,-3.2%
CC(=O)c1ccccc1-c1ccc2c(c1)CC(CNC(=O)Cc1c[nH]c3ccccc13)O2 (stereo not drawn),-0.4%
COc1cccc(CC(O)CC2c3c(cc4c(c3OC)OCO4)CCN2C)c1 (stereo not drawn),-3.0%
CSc1ccc(CN2CCOc3ccc(CN4CCCCC4CO)cc3C2)cc1 (stereo not drawn),-11.6%

# A portion of the results above, as a working copy:
SMILES,2A StopGo
COc1ccccc1CN1CCOc2ccc(C(C)(O)COc3ccccc3)cc2C1 (stereo not drawn),-6.1%
O=C(CCN1Cc2ccccc2OC(c2ccccc2)C1)N[C@@H]1CS(=O)(=O)C[C@H]1O (stereo partly drawn),4.7%
COc1ccc(C2(C(=O)NCC3Cc4cccc(-c5nc(C)cnc5C)c4O3)CCCC2)cc1 (stereo not drawn),-8.6%
Cc1ccc(C(=O)Nc2cnn(-c3ccc(C(=O)N(C)Cc4n[nH]c5c4CCCC5)cc3)c2)c(C)c1,?
Cc1c(C(=O)N2CC[C@@H]3CCCC[C@H]3C2)sc2ncnc(NCCc3ccccn3)c12,-18.6%

# Continuation:
SMILES,2A StopGo
CC(NC(=O)c1ccco1)c1nnc2n1CCN(Cc1ccc(N3CCCC3)cc1)CC2 (stereo not drawn),4.0%
O=C(CN1Cc2ccccc2OC(c2ccsc2)C1)N1CCC(c2nc3ccccc3[nH]2)CC1 (stereo not drawn),8.4%
CC[C@H](C)[C@H](NC(=O)[C@H](C)NC(=O)[C@H](CC(N)=O)NC(=O)[C@H](CCCCN)NC(=O)[C@H](Cc1ccccc1)NC(=O)[C@H](CC(C)C)NC(=O)[C@@H](NC(=O)[C@@H](NC(=O)[C@H](CC(C)C)NC(=O)[C@@H]1CCCN1C(=O)[C@@H](NC(=O)[C@H](CCC(N)=O)NC(=O)[C@H](CO)NC(=O)[C@H](CCCCN)NC(=O)[C@H](CCC(=O)O)NC(=O)[C@H](CO)NC(=O)[C@@H](NC(=O)[C@H](CCSC)NC(=O)[C@H](Cc1ccccc1)NC(=O)CNC(=O)CNC(=O)[C@@H](N)Cc1ccc(O)cc1)[C@@H](C)O)[C@@H](C)O)C(C)C)[C@@H](C)O)C(=O)N[C@H](C(=O)N[C@@H](CCCCN)C(=O)N[C@@H](CC(N)=O)C(=O)N[C@@H](C)C(=O)N[C@@H](Cc1ccc(O)cc1)C(=O)N[C@@H](CCCCN)C(=O)N[C@@H](CCCCN)C(=O)NCC(=O)N[C@@H](CCC(=O)O)C(=O)O)[C@@H](C)CC,0.1%[6.7 µM]
CC(C)C[C@H](NC(=O)[C@H](Cc1ccccc1)NC(=O)CNC(=O)[C@H](C)NC(=O)[C@@H](N)Cc1ccc(O)cc1)C(=O)O,-0.9%[6.7 µM]
Cc1ccc(C(=O)NCCc2nnc3n2CCN(Cc2cc(C)cc(C)c2)CC3)cc1,-12.4%
CC(C)NC(=O)c1cn(C2CCCN(C(=O)c3cc4ccccc4oc3=O)C2)nn1 (stereo not drawn),-10.8%
Cc1ccc2c(CC(=O)N3CCOc4ccc(CN5CCOCC5)cc4C3)cc(=O)oc2c1,1.2%
Oc1ccc(-c2cccnc2)cc1CNC1CN2CCC1CC2 (stereo not drawn),-9.9%
CN(CCO)C(=O)c1cn(C2CCCN(Cc3ccc4ccccc4c3)C2)nn1 (stereo not drawn),-22.1%
CO[C@@H]1C[C@@H](C[C@H]2CC[C@H](C)[C@@H]([C@@H](C)C(=O)O)O2)O[C@]2(O[C@](C)([C@H]3CC[C@@](C)(C4OC([C@H]5O[C@@](O)(CO)[C@H](C)C[C@@H]5C)C[C@@H]4C)O3)C[C@H]2C)[C@@H]1C (stereo partly drawn),?
COc1ccc(OC)c(-c2ccnc(-n3ncc(C(=O)N(C)CCc4ccccn4)c3C)n2)c1,-10.8%
Cc1ncc2c(c1CNS(=O)(=O)c1cccs1)CCN(C(=O)/C=C/c1ccc(F)cc1F)C2,3.6%
COc1ccc2nc(-c3ccc(F)cc3)sc2c1,-52.0%
CC(=O)N(Cc1ccc2c(c1)OCO2)Cc1cc2ccc(C)cc2nc1-c1cccc(C)c1,-2.9%
COc1ccc(-c2ccc(C(=O)NCC3Cc4cccc(-c5nc(C)cnc5C)c4O3)o2)cc1 (stereo not drawn),-14.8%
Cc1cc(=O)c(C(=O)NCCc2ccccn2)c2n1-c1ccccc1SC(c1cccs1)C2 (stereo not drawn),-0.2%
N#Cc1c(N)n[nH]c1Cc1cccc2ccccc12,-12.6%
CN(CCO)C(=O)c1cn(C2CCCN(Cc3cccc4ccccc34)C2)nn1 (stereo not drawn),-5.8%
COc1ccccc1C(=O)N(Cc1cc2cccc(C)c2nc1N1CCC(O)CC1)C1CC1,-6.9%
CNC(=S)NCCCCc1cnc[nH]1,-16.3%
C=C1/C(=C\C=C2\CCCC3(C)C2CCC3C(C)/C=C/C(O)C2CC2)CC(O)CC1O (stereo not drawn),?
COc1ccc(-c2cc(C)cc3c2OC(CNC(=O)/C=C/c2ccncc2)C3)nn1 (stereo not drawn),-16.7%
Cc1nc2ccccn2c1P(=S)(c1ccccc1)c1ccccc1,-22.0%
CCN1C[C@]2(COC)[C@H](O)C[C@H](OC)[C@]34C1C([C@H](OC)[C@H]23)[C@]1(OC(C)=O)C2[C@@H](OC(=O)c3ccccc3)C(O)(C[C@H]24)[C@@H](OC)[C@@H]1O,-16.9%[39.8 µM]
CCC1(C2CCN(C(=O)c3ccc4ccccc4c3)CC2)NC(=O)N(CCc2scnc2C)C1=O (stereo not drawn),6.5%
Cc1cnc(-n2ncc(C(=O)N(C)C3CCOC3)c2C)nc1-c1ccc(F)cc1 (stereo not drawn),25.7%
CC1(C)c2[nH]c3ccccc3c2C[C@@H]2C(=O)N(Cc3ccc(F)cc3)C(=O)N21,-3.1%
O=C(Nc1ccccc1)C12CC1/C(=N\O)c1ccccc1O2 (stereo not drawn),-6.8%
Cc1ncc2c(c1CNC(=O)/C=C/c1cccs1)CCN(C(=O)c1ccc3c(c1)OCCO3)C2,5.6%
O=C(NCc1nnc2n1CCN(Cc1ccccc1C(F)(F)F)CC2)c1ccncc1,-15.7%

# The list is partial (hit frequency here may not be typical).
